Mtb MenB inh: M. tuberculosis MenB inhibitors, primary screen, biochemical, absorbance | 0.43% of 100,000 active | 1,4-dihydroxy-2-naphthoyl-CoA synthase (Mycobacterium tuberculosis (strain ATCC 25618 / … | inhibition, %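 (about 12 µg/mL by stock and volumes)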 | AID 540299, 2011 | MenB enzyme assay, absorbance read-out; some hits fall short of the stated cut;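 active = mean of two replicates above 30%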;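 also: 0% = no compound and 100% = wells with inactive enzyme; the first replicate is given; strong numbers were not always called active; inactives centre near -10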
Target sequence (P9WNP5 whole entry, looked up): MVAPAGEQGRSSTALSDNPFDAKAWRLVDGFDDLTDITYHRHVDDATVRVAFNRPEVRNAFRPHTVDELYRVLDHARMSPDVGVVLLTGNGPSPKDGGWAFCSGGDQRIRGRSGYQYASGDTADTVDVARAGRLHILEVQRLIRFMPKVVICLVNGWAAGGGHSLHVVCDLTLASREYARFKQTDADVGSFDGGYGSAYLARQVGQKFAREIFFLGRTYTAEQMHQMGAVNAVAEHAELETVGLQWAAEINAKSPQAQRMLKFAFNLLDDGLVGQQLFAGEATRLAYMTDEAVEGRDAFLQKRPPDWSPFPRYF
MbtI inh: MbtI salicylate synthase inhibitors, primary screen, biochemical, fluorescence intensity; P9WFX0; purified MbtI enzyme, fluorescence intensity read-out; inhibition, %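 (about 17 µg/mL by stock and volumes)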; 0.89% of 100,000 active;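 active = above 50% in both replicates, above 80% if mildly self-fluorescent; inactive = the rest, strongly fluorescent compounds included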;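 also: 0% = mean of negative and 100% = mean of positive controls; one replicate is shown; some compounds called inactive have numbers as strong as hits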
Target sequence (P9WFX0 whole entry, looked up): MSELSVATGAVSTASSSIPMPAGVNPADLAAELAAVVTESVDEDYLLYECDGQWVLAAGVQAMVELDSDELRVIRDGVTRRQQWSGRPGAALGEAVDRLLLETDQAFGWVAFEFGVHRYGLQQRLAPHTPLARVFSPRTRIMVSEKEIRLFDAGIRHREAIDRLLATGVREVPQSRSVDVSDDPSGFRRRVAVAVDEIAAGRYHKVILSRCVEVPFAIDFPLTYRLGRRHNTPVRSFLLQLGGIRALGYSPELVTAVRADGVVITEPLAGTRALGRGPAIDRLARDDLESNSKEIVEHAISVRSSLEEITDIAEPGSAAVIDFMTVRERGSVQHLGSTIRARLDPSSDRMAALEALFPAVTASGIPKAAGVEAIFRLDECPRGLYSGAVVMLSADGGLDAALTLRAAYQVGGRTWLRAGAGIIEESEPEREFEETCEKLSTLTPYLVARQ
Polio RdRp inh: poliovirus RdRp elongation inhibitors, primary screen, biochemical, fluorescence polarization, total intensity. Genome polyprotein (Poliovirus type 1 (strain Mahoney)), P03300. poliovirus polymerase elongation; hits give low values. % elongation, % (compound at 16.7 µg/mL). 0.66% of 150,000 active. AID 588519, 2011; in the data active = % elongation below about 90%; also: some results filed as inactive read as strong as hits
Polio RdRp inh intensity: further read-out of Polio RdRp inh, marked with its call; % elongation; measured here: total intensity read-out; formula for this scale not given here;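 total fluorescence in place of polarization; lower means less elongation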
* hit, by the source's call; nt = no result given. These rows are one share of the data (hit frequency here may not be typical).

The opening two entries, ahead of the listing:
SMILES | Mtb MenB inh | MbtI inh | Polio RdRp inh | others
CCC(Sc1nc2cc(OC)c(OC)cc2c(=O)n1Cc1ccco1)C(=O)NCc1ccc(C)cc1 (stereo not given) | nt | -18 | nt
COc1ccc(CNC(=O)c2cnc(Nc3ccccc3OC)c3ccccc23)cc1 | nt | 27 | nt

The list itself, from the first entry:
SMILES | Mtb MenB inh | MbtI inh | Polio RdRp inh | others
CCC(Sc1nc2cc(OC)c(OC)cc2c(=O)n1Cc1ccco1)C(=O)NCc1ccc(C)cc1 (stereo not given) | nt | -18 | nt
COc1ccc(CNC(=O)c2cnc(Nc3ccccc3OC)c3ccccc23)cc1 | nt | 27 | nt
CCOC(=O)Cc1csc(NC(=O)COc2c(C)cccc2C)n1 | nt | -16 | nt
COc1ccc2cc3c(NC(=O)COc4cccc(C)c4)n[nH]c3nc2c1 | nt | -6 | nt
O=C(O)Cc1cc(=O)oc2c1ccc1ccccc12 | nt | -32 | nt
COc1cc(CNc2nc3ccccc3[nH]2)cc(OC)c1OC | nt | -3 | nt
N#Cc1cnc(Nc2nc3ccccc3s2)nc1-c1ccccc1 | nt | -6 | nt
O=C(O)C12C3C4C1C1C2C3C41C(=O)O (stereo not given) | nt | -7 | nt
CC(=O)NC(C(N)=O)C(SCc1ccccc1)c1c[nH]c2ccccc12 (stereo not given) | nt | -7 | nt
CC1(C)CC(=O)C=C(Nc2sc3c(c2C#N)CCCC3)C1 | nt | 19 | nt
O=C(NCCCn1ccnc1)c1ccc2c(c1)OCO2 | nt | -4 | nt
CCNCC1OCCc2ccccc21 (stereo not given) | nt | -8 | nt
COC(=O)Cc1cc(=O)n(-c2nc3ccccc3s2)[nH]1 | nt | 16 | nt
CCOC(=O)C(C)Sc1nc2c(c(=O)[nH]c(=O)n2C)n1CC(O)COc1ccc(Cl)cc1 (stereo not given) | nt | -10 | nt
CCCSc1nnc2nc3c(nn12)c1ccccc1n3C | nt | -12 | nt
NCCC(c1ccccc1)c1ccco1 (stereo not given) | nt | -7 | nt
COC(=O)c1cc(-c2ccccc2)no1 | nt | -5 | nt
O=C(O)c1ccccc1Nc1ccccc1C(=O)O | nt | 4 | nt
Clc1ccc(OCc2nnc3c4cnn(-c5ccccc5)c4ncn23)cc1 | nt | -12 | nt
CC(C)c1ccc(NC(=O)C(c2ccccc2)N2CCc3ccccc32)cc1 (stereo not given) | nt | 5 | nt
COc1ccc(NC(=O)C(NC(=O)c2ccc(=O)[nH]c2)c2ccc(C)cc2)cc1 (stereo not given) | nt | -2 | nt
Cn1cnc2nc(SCC(=O)O)nc(N)c21 | nt | -6 | nt
CCOC(=O)C1(C#N)C(=O)C(C#N)=C2CCCCC2C1c1ccccc1 (stereo not given) | nt | -16 | nt
CC(C)OC(=O)C1CC(C)(O)C(=O)C(C(=O)OC(C)C)C1c1ccc(F)cc1 (stereo not given) | nt | -17 | nt
CC1CC(C)(C)NC(=S)N1CC(=O)NCc1ccc2c(c1)OCO2 (stereo not given) | nt | 10 | nt
CN(CC(=O)NCc1ccccc1F)C(=O)c1ccco1 | nt | -10 | nt
CS(=O)(=O)Nc1cccc2nsnc12 | nt | -4 | nt
Cc1ccoc1C(=O)N1CCCCC1C(=O)O (stereo not given) | nt | -16 | nt
Oc1ccc(Cc2ccc(O)c3ncccc23)c2cccnc12 | nt | -13 | nt
O=C(NC1CCN(Cc2ccccc2)CC1)c1ccccc1 | nt | -7 | nt
Cc1cccc(C)c1NC(=O)C1(N(C)C(=O)Cc2cccs2)CCCCC1 | nt | -5 | nt
CCCC1CC2(O)CC(C#N)(C(=O)N2)C1(C#N)C#N (stereo not given) | nt | 4 | nt
N#Cc1ccc(NS(=O)(=O)Cc2ccccc2)cc1 | nt | 0 | nt
Cn1c2ccccc2c2cc(C(=O)O)ccc21 | nt | -4 | nt
CC(=O)OC1CCN(CCc2ccccc2)C(C)C1C (stereo not given) | nt | -8 | nt
Cc1ccn(-c2ccccc2)n1 | nt | -1 | nt
COc1ccc(C(=O)NCCN2CCOCC2)c(OC)c1 | nt | -14 | nt
BrCc1ccc2nsnc2c1 | nt | 26 | nt
O=C(O)c1cc2nc(-c3ccccc3)cc(-c3ccccc3)n2n1 | nt | -8 | nt
CNC(=O)Cn1c(=O)n(C)c2ccccc21 | nt | -11 | nt

Part of the list above in order of molar mass, highest first.
SMILES | Mtb MenB inh | MbtI inh | Polio RdRp inh | others
CCC(Sc1nc2cc(OC)c(OC)cc2c(=O)n1Cc1ccco1)C(=O)NCc1ccc(C)cc1 (stereo not given) | nt | -18 | nt
COc1ccc(CNC(=O)c2cnc(Nc3ccccc3OC)c3ccccc23)cc1 | nt | 27 | nt
CC(C)OC(=O)C1CC(C)(O)C(=O)C(C(=O)OC(C)C)C1c1ccc(F)cc1 (stereo not given) | nt | -17 | nt
CC(C)c1ccc(NC(=O)C(c2ccccc2)N2CCc3ccccc32)cc1 (stereo not given) | nt | 5 | nt
CC(=O)NC(C(N)=O)C(SCc1ccccc1)c1c[nH]c2ccccc12 (stereo not given) | nt | -7 | nt
COc1ccc2cc3c(NC(=O)COc4cccc(C)c4)n[nH]c3nc2c1 | nt | -6 | nt
CCOC(=O)C1(C#N)C(=O)C(C#N)=C2CCCCC2C1c1ccccc1 (stereo not given) | nt | -16 | nt
N#Cc1cnc(Nc2nc3ccccc3s2)nc1-c1ccccc1 | nt | -6 | nt
COc1cc(CNc2nc3ccccc3[nH]2)cc(OC)c1OC | nt | -3 | nt
Oc1ccc(Cc2ccc(O)c3ncccc23)c2cccnc12 | nt | -13 | nt
CC1(C)CC(=O)C=C(Nc2sc3c(c2C#N)CCCC3)C1 | nt | 19 | nt
COc1ccc(C(=O)NCCN2CCOCC2)c(OC)c1 | nt | -14 | nt
CN(CC(=O)NCc1ccccc1F)C(=O)c1ccco1 | nt | -10 | nt
O=C(NCCCn1ccnc1)c1ccc2c(c1)OCO2 | nt | -4 | nt
N#Cc1ccc(NS(=O)(=O)Cc2ccccc2)cc1 | nt | 0 | nt
CCCC1CC2(O)CC(C#N)(C(=O)N2)C1(C#N)C#N (stereo not given) | nt | 4 | nt
Cc1ccoc1C(=O)N1CCCCC1C(=O)O (stereo not given) | nt | -16 | nt
BrCc1ccc2nsnc2c1 | nt | 26 | nt
COC(=O)c1cc(-c2ccccc2)no1 | nt | -5 | nt
CCNCC1OCCc2ccccc21 (stereo not given) | nt | -8 | nt

Further records.
SMILES | Mtb MenB inh | MbtI inh | Polio RdRp inh | others
CC(C)(C)NC(=O)c1cccs1 | nt | -6 | nt
O=C(NCCc1ccccc1)c1ccc2nc[nH]c2c1 | nt | 2 | nt
CCOC(=O)CN1C(=O)CC(c2ccccc2)C1=O (stereo not given) | nt | -5 | nt
C=C(C)C1CC=C(C)C(OC(=O)c2ccccc2C(=O)O)C1 (stereo not given) | nt | 5 | nt
Nc1nnc(SCC(=O)N2CCc3ccccc3C2)s1 | nt | -13 | nt
COc1ccccc1-c1nnc(NC(=O)c2ccc(S(=O)(=O)N3CC(C)OC(C)C3)cc2)o1 (stereo not given) | nt | 2 | nt
c1cc(CNCc2ccc3c(c2)OCO3)ccn1 | nt | -13 | nt
CC(C)c1n[nH]c2c1CCCC2 | nt | -9 | nt
Cc1ccc(CNC(=O)C2(O)c3ccccc3NC(=O)N2c2ccc(C)c(C)c2)cc1 (stereo not given) | nt | -4 | nt
O=C(O)[C@H]1CCCC[C@H]1C(=O)NCCc1ccccc1 | nt | -10 | nt
O=C(Cc1ncn[nH]1)NCCc1ccccc1 | nt | -17 | nt
N#CCc1ccc(NS(=O)(=O)c2ccc(N3CCCC3=O)cc2)cc1 | nt | -5 | nt
CN(CC(=O)O)S(=O)(=O)c1cccs1 | nt | -8 | nt
COC(=O)c1cc2c(s1)-c1ccccc1OC2 | nt | 106 | nt
O=C(CSc1nc2ccccc2c(=O)[nH]1)c1ccccc1 | nt | 43 | nt
NC(=O)c1cccn1Cc1ccccc1Cl | nt | -15 | nt
O=C(O)c1cccc(N2CCCC2)c1 | nt | -250 | nt
O=C(Cc1ccccc1)N1CCc2ccccc21 | nt | 4 | nt
CCC(C)(C(=O)NC1CCCCC1)N(C(C)=O)c1ccccc1 (stereo not given) | nt | -4 | nt
CCOC(=O)c1cc(-c2ccccc2)n(CC(=O)N2CCCC2)c1C | nt | -7 | nt
COc1ccc(OC)c2c(C)cc(C)nc12 | nt | -13 | nt
CC(=O)N1CCCC1(C(=O)O)c1ccccc1 (stereo not given) | nt | -9 | nt
O=C(O)c1cccnc1-c1ncccc1C(=O)O | nt | -10 | nt
COc1ccc(C(=O)CCC(=O)Nc2cccnc2)c(OC)c1 | nt | -5 | nt
O=c1cc(O)c2sc(Nc3ccc(F)cc3)nc2[nH]1 | nt | 4 | nt
O=C(c1cccc2cccc(O)c12)N1CCCCC1 | nt | -3 | nt
CC(=O)N1CCc2cc(Br)cc(S(=O)(=O)N(C)Cc3ccccc3)c21 | nt | 8 | nt
N#Cc1cccn1Cc1ccc(F)cc1Cl | nt | -14 | nt
Cc1ccc(S(=O)(=O)/N=C2/C=C(Sc3ncn[nH]3)C(=O)c3ccccc32)cc1 | nt | 88* | nt
CCOC(=O)c1nnc2ccnn2c1N | nt | -14 | nt
CCC(=O)Nc1ccc(C(=O)Nc2ccc(OCC(=O)O)cc2)cc1 | nt | -8 | nt
O=C(Oc1ccccc1)n1c(=S)oc2ccccc21 | nt | 27 | nt
Cc1ccc(S(=O)(=O)Nc2ccc3nc(-c4cccnc4)[nH]c3c2)cc1 | nt | -192 | nt
Cc1[nH]c(C(=O)N2CCCCC2)c(C)c1C(=O)NC1CCCCC1 | nt | -6 | nt
CCN(CC)Cc1cccc2c1COC2 | nt | -9 | nt
C=CCn1c(=S)oc2ccccc21 | nt | 3 | nt
Cc1cccc(C)c1NC(=O)C(c1ccc(F)cc1)N1C(=O)CC1c1ccco1 (stereo not given) | nt | -8 | nt
O=C(Nc1ccccc1C(=O)NCCN1CCOCC1)c1ccc(Br)cc1 | nt | 6 | nt
COC(=O)c1ccc(-n2cccc2)cc1 | nt | 3 | nt
CC(C)OCC(O)CNc1ccccc1 (stereo not given) | nt | -25 | nt
COC(=O)COc1nc(C)nc2c1sc1nc(C)cc(C)c12 | nt | -2 | nt
CC1CN=C(NCc2ccccc2)S1 (stereo not given) | nt | -11 | nt
CCN(C(=O)c1coc(=O)c2ccccc12)c1cccc(C(F)(F)F)c1 | nt | 0 | nt
CCN(CC)CCNc1nc2c(c(=O)n(C)c(=O)n2C)n1Cc1ccc(F)cc1 | nt | -1 | nt
O=C(Oc1ccc(Br)cc1)c1ccco1 | -12 | nt | nt
Nc1c(C(=O)NC2CCCC2)c2nc3ccccc3nc2n1/N=C/c1cccnc1 | -82 | nt | nt
Cc1ccc(NC(=O)CC(=O)Nc2ccc(C)cc2)cc1 | -7 | nt | nt
CCC(=O)c1cn(CC(=O)N2CCCC2)c2ccccc12 | -6 | nt | nt
Nc1c(S(=O)(=O)c2ccccc2)c2nc3ccccc3nc2n1/N=C/c1ccncc1 | -26 | nt | nt
Cn1c(NC(=O)c2cccs2)c(-c2cccs2)c(=O)c2ccccc21 | 9 | nt | nt
Cc1ccc(O)c(NC(=O)c2cccs2)c1 | 3 | nt | nt
CCCCC(=O)Nc1sc2c(c1C#N)CCCC2 | -18 | nt | nt
NC(=O)c1cccc(N2C(=O)c3ccccc3C2=O)c1 | 5 | nt | nt
CCOC(=O)c1c(NC2=CC(=O)CCC2)sc2c1CCCCC2 | -33 | nt | nt
COc1ccc(S(=O)(=O)C(C#N)c2nc3ccccc3nc2N2CCCC2)cc1 (stereo not given) | 3 | nt | nt
COc1cc(NC(=O)Cn2nc(Cc3cccnc3)c3ccccc3c2=O)cc(OC)c1OC | nt | nt | 105 | Polio RdRp inh intensity=106
CCN(CC)c1cc2c(cc1F)c(=O)c(S(=O)(=O)c1ccccc1)cn2C | nt | nt | 101 | Polio RdRp inh intensity=103
Cc1ccccc1NC(=O)Nc1csc2c1CCCC2 | nt | nt | 111 | Polio RdRp inh intensity=109
COc1ccc2c(c1)CCc1c(C(=O)Nc3c(C)nn(Cc4ccc(Cl)c(Cl)c4)c3C)noc1-2 | nt | nt | 103 | Polio RdRp inh intensity=104
O=C(Nc1ccc2nc(SCC(=O)N3CCc4ccccc43)sc2c1)c1cccc(Cl)c1 | nt | nt | 112 | Polio RdRp inh intensity=104
The list goes on:
SMILES | Mtb MenB inh | MbtI inh | Polio RdRp inh | others
Cc1ccccc1Nc1nnc(-c2ccc(C)c(S(=O)(=O)N3CCOCC3)c2)c2ccccc12 | nt | nt | 107 | Polio RdRp inh intensity=107
Cc1ccc(-c2cc(C(=O)NCCc3ccccc3)c3c(-c4ccc(C)cc4)[nH]nc3n2)cc1 | nt | nt | 113 | Polio RdRp inh intensity=105
Cn1cc(-c2cc3n(n2)CCC(=O)N3CC(=O)O)c2ccccc21 | nt | nt | 105 | Polio RdRp inh intensity=110
COc1cc(OC)c(NC(=O)c2c(C)oc3nc(C)nc(N4CCOCC4)c23)cc1Cl | nt | nt | 115 | Polio RdRp inh intensity=113
CCc1ccccc1N1C(=O)CN(S(=O)(=O)CC)CC1(C)C(=O)NC1CCCCC1 (stereo not given) | nt | nt | 98 | Polio RdRp inh intensity=91
COc1ccc(CNC(=O)C2CCN(c3nc4ccc(C)cc4[nH]3)CC2)cc1 | nt | nt | 112 | Polio RdRp inh intensity=117
CCCCc1ccc(-n2nc3cc(C)c(NC(=O)c4ccc(C#N)cc4F)cc3n2)cc1 | nt | nt | 109 | Polio RdRp inh intensity=113

Assay outcomes (PubChem BioAssay)
